Screens deposited in PubChem by National Center for Advancing Translational Sciences (NCATS).
VDR inhibitor: Inhibitors of the vitamin D receptor (VDR): qHTS; VDR-SRC2-3 peptide fluorescence polarization, 2 h; Potency, µM, inactives show max response, negative = inhibition, usual class: inhibitors; actives 0.93% (n = 400,000); active means well fitted inhibition curve with a large enough effect; inconclusive means small, poorly fitted or top-dose-only effect, or another doubt; inactive means no such curve, though single readings can be large or run the other way; further: series mostly up to about 120 µM
Target sequence (P11473 whole entry, looked up): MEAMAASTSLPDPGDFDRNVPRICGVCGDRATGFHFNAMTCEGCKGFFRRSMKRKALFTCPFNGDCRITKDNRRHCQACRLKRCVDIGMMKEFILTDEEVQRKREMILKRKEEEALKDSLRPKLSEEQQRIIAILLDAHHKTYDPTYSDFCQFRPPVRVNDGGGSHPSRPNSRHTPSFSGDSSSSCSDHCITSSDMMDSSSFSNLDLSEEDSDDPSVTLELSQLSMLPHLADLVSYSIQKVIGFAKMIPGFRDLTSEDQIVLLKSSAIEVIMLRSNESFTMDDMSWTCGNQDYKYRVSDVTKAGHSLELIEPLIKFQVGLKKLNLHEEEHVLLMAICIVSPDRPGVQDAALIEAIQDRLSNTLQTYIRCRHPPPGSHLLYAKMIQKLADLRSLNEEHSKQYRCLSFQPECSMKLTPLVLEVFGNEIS
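Fluorescence polarization assay of small-molecule disruption of VDR binding to coregulator peptide SRC2-3. Compounds and controls pin-transferred, then read after 2 h incubation at ambient room temperature.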
* hit, by the source's call; ? = inconclusive; & = joins results of further samples. On the % scale 0 is the no-effect control and ±100 the full control effect; potency means the concentration at half of the fitted maximal effect. These rows are one share of the data, so the mix of outcomes need not match the whole.

VDR inhibitor,Compound
9%,O=C(N/N=C/c1ccc(F)c(F)c1)c1cc2c(s1)-c1ccccc1CC2
18%,Cc1cc(NS(=O)(=O)c2ccc(NC(=O)Cc3ccc([N+](=O)[O-])cc3)cc2)no1
-9%,CCn1nc(C)cc1C(=O)n1nc(C)c(Sc2ncccn2)c1C
-14%,C[C@H](CO)N1C[C@H](C)[C@@H](CN(C)Cc2ccc3c(c2)OCO3)Oc2ccc(NS(C)(=O)=O)cc2C1=O
7%,CC(C)c1cc(O)c(-c2ccccc2)c(=O)n1-c1ccc(Cl)cc1
-16%,COc1ccc(-c2ncn(CCC#N)c2[N+](=O)[O-])cc1
2%,COc1ccc2nc(NC(=O)C3CCN(C(=O)c4ccco4)CC3)sc2c1
3%,O=C(CN1CCN(S(=O)(=O)c2ccc(Cl)cc2)CC1)NC1CCCC1
-3%,Cn1c(C(=O)NC2CCCCC2)cc2c(=O)n3ccccc3nc21
2%,CCc1cccc(C)c1NC(=O)Cn1ccn(Cc2ccc(Cl)cc2)c(=O)c1=O
-7%,N#CCC(=O)N1CC2(CC(c3cccc(NC(=O)COc4ccc(Cl)cc4)c3)=NO2)C[C@@H]1C(N)=O (stereo partly specified)
4%,Cc1ccc(C(=O)Nc2nnc(-c3ccc(C(C)(C)C)cc3)s2)cc1
3%,COc1ccc(Cl)cc1C(=O)NC(C)C
-5%,O=C(Nc1ccc(F)cc1F)c1ccc(S(=O)(=O)N2CCCCC2)cc1
2%,c1ccc(-n2cc(CN3CCC(N4CCOCC4)CC3)c(-c3ccc4c(c3)OCO4)n2)cc1
0%,CCOC(=O)c1cccc(NC(=O)Cn2cnc3c2c(=O)n(C)c(=O)n3C)c1
11%&0%&0%,Clc1cccc(Cl)c1NC1=NCCN1
10%,COc1cccc(COC(=O)C2CCN(S(=O)(=O)c3ccc(Cl)cc3)CC2)c1OC
17%,COc1ccc(/C=N/NC(=O)c2ccc(N(C)S(=O)(=O)c3ccccc3)cc2)cc1OC
18%,Cc1nn(C(C)C(=O)NC2CCCCC2)c(=O)c2c1sc1ccccc12 (stereo unspecified)
14%,O=C(COC(=O)Cc1ccc(Br)cc1)NCc1cccs1
4%,c1cncc(-c2nnc(-c3ccco3)o2)c1
4%,Cc1ccc(OCC(=O)Nc2ccc(S(=O)(=O)N3CCCCC3)cc2)c([N+](=O)[O-])n1
5%,Cc1cc(C)n(-c2ccc(C(=O)OCC(=O)NCc3ccco3)cc2)n1
-7%,CC(C)(C)NS(=O)(=O)c1ccc(OCC(=O)NCC2CCCO2)cc1 (stereo unspecified)
-12%,NS(=O)(=O)c1ccc(CCNCc2cccs2)cc1
-21%,O=C1CC(=O)N(CCc2ccccc2)C(=O)N1CCc1ccccc1
-5%,COC(=O)Cc1nc(NC(=O)c2cccs2)sc1C
-17%,COc1ccc(OC)c(S(=O)(=O)Nc2ccc(-c3ccc4nncn4n3)cc2)c1
0%,CCOC(=O)[C@@H]1[C@H]2COc3ccc(Br)cc3[C@@H]2N2C(=O)N(c3ccc(Br)cc3)C(=O)[C@@]12C
-2%,CC(C)(C)n1nnnc1CN1CCC(NC(=O)NC2CCCCC2)CC1
10%,O=C(c1ccc(CSc2ccc(Cl)cc2)cc1)N1CCCC1
-21%,NNC(=O)c1ccc(COc2cccc3ccccc23)o1
24%,CC(C)CCNC(=O)CCc1nnc(Cc2c[nH]c3ccccc23)o1
-12%,COc1ccc(CN2CCOCCOCCOCCOCCOCC2)cc1
2%,Cc1ccc(C(=O)/C=C/c2cc(C#N)n(C)c2C)cc1
14%,O=C(NCCCN1CCOCC1)C1COc2ccccc2O1 (stereo unspecified)
0%,CCc1nn(CCCC(=O)N2CCc3ccccc3C2)c(=O)c2cc3occc3n12
-9%,OC(CNC1CCCc2ccccc21)COc1c(Cl)cccc1Cl (stereo unspecified)
-4%,CC(C)[C@@H]1C=C(C(=O)O)O[C@H](OCCCCO)C1
5%,CC(=O)Nc1cccc(NC(=O)CSc2nc(=O)n(CCN3CCOCC3)c3c2CCCC3)c1
2%,CC/C(O)=C1\C(=O)CC(c2ccccc2)CC1=NCCC(=O)O (stereo unspecified)
79µM*,Cc1ccc(NNC(N)=S)cc1Cl
-8%,Cc1ccc(O)c(NC(=O)C2CC(c3ccc(F)cc3)=NO2)c1 (stereo unspecified)
-15%,O=C(CN1CCN(c2ncccn2)CC1)NCc1ccc2c(c1)OCO2
-19%,CCOc1cc(NC(=O)Nc2ccc(F)cc2)c(OCC)cc1NC(=O)CC
3%,Cc1ccc(SC(C)C(=O)Nc2ncn[nH]2)cc1 (stereo unspecified)
-29%,COc1ccc(-c2ccc(N(C)C)cc2)cc1[C@H]1[C@@H]2C=CCC[C@@]2(C)C(=O)N1Cc1ccccc1
-13%,Cc1cccc(C)c1NC(=O)CN(C)C(=O)C1CC(=O)N(c2cccc3ccccc23)C1 (stereo unspecified)
-6%,Cc1cc(C)cc(OCC(=O)N2CCC(c3nc4ccccc4s3)CC2)c1
-9%,CN(C(=O)COC(=O)CNC(=O)c1ccc(C(C)(C)C)cc1)c1c(N)n(Cc2ccccc2)c(=O)[nH]c1=O
-20%,O=C(N/N=C/c1cccnc1)c1cc(-c2ccc(Br)cc2)nc2ccccc12
-2%,CN(C)S(=O)(=O)N1CCN(c2ccc([N+](=O)[O-])cc2)CC1
15%,CCc1cccc(CC)c1NC(=O)C1SC(=Nc2ccccc2C)C(c2nc3ccccc3s2)=C1N (stereo unspecified)
-11%,COc1ccc(NC(=O)CCNS(=O)(=O)c2ccc3c(c2)CC(C)N3C(=O)C2CC2)cc1 (stereo unspecified)
-25%,Cc1nn(CC2CC2)c(=O)n1-c1cccc(Cl)c1
-8%,CCNc1nc(SCC(=O)Nc2ccccc2)nc(N2CCOCC2)n1
-2%,Cn1c(=O)c2c(ncn2CC(=O)OCC(=O)Nc2ccc(F)cc2Cl)n(C)c1=O
5%,CC1CCN(S(=O)(=O)c2ccc(C(=O)NNC(=O)C3CC3)cc2)CC1
-2%,CCOC(=O)C1CCCN(C(=O)Cn2c(=O)cc(C)c3c(C)nn(C)c32)C1 (stereo unspecified)

3 compounds drawn at random from those above:
VDR inhibitor,Compound
-5%,COC(=O)Cc1nc(NC(=O)c2cccs2)sc1C
2%,CCc1cccc(C)c1NC(=O)Cn1ccn(Cc2ccc(Cl)cc2)c(=O)c1=O
-20%,O=C(N/N=C/c1cccnc1)c1cc(-c2ccc(Br)cc2)nc2ccccc12

(next part)
VDR inhibitor,Compound
-4%,O=[N+]([O-])c1ccc(N/N=C/c2cccc(O)c2)cc1
4%,CC(=O)NC1(c2ccc(F)cc2)CCN(C(=O)Nc2ccc(F)cc2F)CC1
-5%,O=C(Nc1nnc(S(=O)(=O)N2CCCc3ccccc32)s1)c1cccc(F)c1
-12%,CCC(C)n1c(SCC(=O)Nc2cc(C(C)(C)C)nn2-c2ccccc2)nc2ccccc2c1=O (stereo unspecified)
8%,COc1cc(NC(=O)NC(C)c2c(-n3cccc3)sc3c2CCCC3)cc(OC)c1OC (stereo unspecified)
-19%,COc1cc(/C=C2\C(=O)N(C)C(=S)N2C)ccc1O
-3%,CCc1ccc(C(=O)CN2C(=O)NC(C)(c3ccc(C)cc3)C2=O)cc1 (stereo unspecified)
-16%,O=C(/C=C/c1ccccn1)c1ccc(Br)cc1O
7%,C[C@H](NCCC(c1ccccc1)c1ccccc1)c1ccccc1
17%,CCOCCCNC(=O)C1CCN(c2nn3cc(-c4ccc(F)cc4)nc3s2)CC1
-18%,COc1ccc(CN(C(=O)c2nsc(Cl)c2Cl)C(C(=O)NC2CCCCC2)c2ccc(OC)cc2)cc1 (stereo unspecified)
-9%,CCCNC(=O)COC(=O)c1cc2c(=O)n3ccccc3nc2s1
16%,COc1ccccc1CNC(=O)C(C)n1c(=O)cc(C(F)(F)F)c2c(C)nn(C)c21 (stereo unspecified)
-9%,O=C(COC(=O)C1=Cc2ccccc2OC1)NCc1ccco1
-1%,O=C(c1cccc(C(F)(F)F)c1)C1CCCN(C(=O)CCn2cnnn2)C1 (stereo unspecified)

Another view of some results above.
Cn1c(C(=O)NC2CCCCC2)cc2c(=O)n3ccccc3nc21
- VDR inhibitor: -3%
CCc1cccc(C)c1NC(=O)Cn1ccn(Cc2ccc(Cl)cc2)c(=O)c1=O
- VDR inhibitor: 2%
N#CCC(=O)N1CC2(CC(c3cccc(NC(=O)COc4ccc(Cl)cc4)c3)=NO2)C[C@@H]1C(N)=O (stereo partly specified)
- VDR inhibitor: -7%
Cc1ccc(C(=O)Nc2nnc(-c3ccc(C(C)(C)C)cc3)s2)cc1
- VDR inhibitor: 4%

Three entries already listed, arranged by molar mass, rising:
VDR inhibitor,Compound
7%,C[C@H](NCCC(c1ccccc1)c1ccccc1)c1ccccc1
-1%,O=C(c1cccc(C(F)(F)F)c1)C1CCCN(C(=O)CCn2cnnn2)C1 (stereo unspecified)
-5%,O=C(Nc1nnc(S(=O)(=O)N2CCCc3ccccc32)s1)c1cccc(F)c1

Continued:
VDR inhibitor,Compound
12%,c1csc(-c2nnc(N3CCOCC3)c3ccccc23)c1
-7%,COc1ccc(OCC(=O)Nc2nc3c(s2)CCCC3)cc1
-14%,COc1ccc(-c2[nH]n(-c3ccc([N+](=O)[O-])cc3)c(=O)c2C=NCc2ccc(F)cc2)cc1
-12%,CCOc1ccc(C2Nc3ccccc3-c3nnc(SCc4ccccc4)nc3O2)cc1OC (stereo unspecified)
23%,Cc1cc(Nc2nc3ccccc3nc2Cl)n(-c2ccccc2)n1
2%,CC(C)CN1CCNC(=O)C1CC(=O)NCCc1cnn(-c2ccccc2)c1 (stereo unspecified)
14%,c1ccc(COc2ncnc3c2ncn3CCCNCc2ccccn2)cc1
0%,Cc1cc(=O)[nH]c(NN=C2C3CC4CC(C3)CC2C4)n1
15%,COc1ccc(CC2(CO)CCN(Cc3cc4ccccc4o3)CC2)cc1
16%,O=C(NCC1CCCO1)C(=O)N/N=C/c1c(F)cccc1Cl (stereo unspecified)
-2%,COc1ccc(-c2cc(C3CCN(Cc4cccc(C(F)(F)F)c4)CC3)[nH]n2)cc1
?,CC(=O)c1ccc(-n2c(CCC(=O)O)ccc2-c2cccs2)cc1
-12%,CCCn1c(=N)c(C(=O)NCc2ccc3c(c2)OCO3)cc2c(=O)n3cccc(C)c3nc21
-9%,Cc1cc(C)nc(N2CCCC(C(=O)NCCc3cccc(F)c3)C2)n1 (stereo unspecified)
-9%,CCOC(=O)CNC(=O)N1c2ccccc2Sc2ccccc21
-14%,O=C(NCc1nc(-c2ccc(C(F)(F)F)cc2)no1)Nc1cc(Cl)cc(Cl)c1
15%,CC(C)(C)NC(=O)CN(Cc1cccnc1)C(=O)c1csnn1
-3%,CCCCn1c(-c2ccc(S(=O)(=O)N3CCOCC3)cc2)csc1=Nc1ccccc1
-2%,OC(CNc1nc2ccccc2s1)c1ccccc1 (stereo unspecified)
-21%,O=C(Nc1ccccc1C(=O)N/N=C/c1ccco1)c1ccc(F)cc1
-4%,COCC(=O)/C=C1\Sc2ccccc2N1C
-18%,CCN(CC(=O)Nc1ccc(OC)cc1)C(=O)c1cc([N+](=O)[O-])ccc1N1CCOCC1
-18%,Cn1cc(Cl)c(C(=O)Nc2cnn(Cc3ccc(F)cc3)c2)n1
3%,CCOC(=O)COc1ccccc1-c1ccno1
5%,CC(=O)c1cccc(NC(=O)Cn2c(-c3cncs3)nc3ccccc32)c1
2%,O=[N+]([O-])c1cc(-c2nnc(Nc3ccc(O)cc3)c3ccccc23)ccc1N1CCOCC1
10%,CCn1c(NCc2cc(Br)ccc2NS(=O)(=O)c2ccc(C)cc2)nc2ccccc21
-10%,O=C(CSc1nnc(COc2ccccc2)n1-c1ccccc1)c1cccs1
-19%,O=C(Nc1ccc(Br)cn1)c1ccc2ccccc2c1
9%,COC(=O)C1=C(C)N(CC(C)C)C(=O)C1
-26%,O=C(O)/C(=C\c1ccc(-c2ccccc2[N+](=O)[O-])o1)c1ccccc1
10%,CN(C)/C=C/C(=O)c1ccc(Cl)c([N+](=O)[O-])c1
3%,O=C(N1CCOCC1)N1CCOCC1
-10%,CC(C)CSc1nnc2[nH]c(=O)cc(N)n12
10%,Cc1ccccc1Nc1ccc([N+](=O)[O-])cn1
0%,O=C(O)/C=C/c1cn(Cc2ccccc2)nc1-c1ccccc1
3%,Cc1cc(C(=O)COc2ccccc2[N+](=O)[O-])c(C)n1C1CC1
20%,Cc1ccc(-c2nc(S(=O)(=O)c3ccc(C)cc3)c(SCC(=O)c3ccccc3)o2)cc1
15%,COCCn1c(SCC(=O)N2CCCC2)nc2c([nH]c3ccccc32)c1=O
-30%,Cc1cc2nc(-c3ccc(OCc4ccccc4C)cc3)cc(C(F)(F)F)n2n1
-5%,CCOC(=O)c1[nH]c2ccc(C)cc2c1N=CN(CC)CC
0%,C=CCc1ccc(OCc2ccc(C(=O)OC)o2)c(OC)c1
?,CCOC(=O)C[C@H]1c2cc(C(F)(F)F)ccc2S(=O)(=O)N1Cc1ccccc1
1%,COc1ccc([N+](=O)[O-])cc1NC(=O)COC(=O)Cc1cc(OC)c(OC)c(OC)c1
-23%,CCOC(=O)/C(=N\Nc1ccccc1[N+](=O)[O-])c1csc(N)n1
-12%,Cn1c(=O)c2c(nc(NCCc3ccccc3)n2Cc2ccccc2)n(C)c1=O
2%,CC(NC(=O)Cc1cccs1)C(c1cccs1)N1CCN(c2ccccc2F)CC1 (stereo unspecified)
-6%,Cc1cc(NS(=O)(=O)c2ccccc2)c(C)c(Cl)c1O
0%,C=CCNC(=S)NNC(=O)c1cccn(Cc2cccc(Cl)c2)c1=O
-1%,CCNC(=O)COC(=O)/C=C/c1cccs1
-13%,COc1cnc(-c2cccc(C(F)(F)F)c2)nc1OC

VDR inhibitor: hit marks shown above.
VDR inhibitor,Compound
79µM*,Cc1ccc(NNC(N)=S)cc1Cl
